# Assay outcomes deposited in PubChem BioAssay by National Center for Advancing Translational Sciences (NCATS).
# Rango-impB inh: qHTS Assay for Inhibitors of Rango (Ran-regulated importin-beta cargo) - Importin beta complex formation. Rango CFP/YFP FRET sensor + importin beta, 45 min. Potency, µM (top dose mostly 92.2 µM), inactives show at the highest dose inhibition of complex formation. actives 0.031% (n = 340,000). AID 540263, 2011; active = rising FRET ratio curve, often small or poorly fitted; inconclusive = mostly compound fluorescence or quenching in the first reads; inactive = flat curves in all reads;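 also: potency is read from the fitted curve at half-maximal effect; 0% = DMSO wells and 100% = buffer wells lacking importin beta; nearly all actives have a fitted effect of over 15% in size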
#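 FRET biosensor (snurportin 1 IBB flanked by EYFP and cerulean), 50 nM, with compound 5 min, then 0.125 microM importin beta in PBS, 1 mM DTT, 0.02% Tween-20, 0.1% BSA. CFP/YFP ratio read after 45 min at room temperature; pre-read flags interference.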
# Rango dissoc inh: qHTS Assay for Inhibitors of RanGTP induced Rango (Ran-regulated importin-beta cargo) - Importin beta complex dissociation | Biochemical FRET Rango-importin beta, RanGTP-induced dissociation | Potency, µM (titrated, usually from 46.1 µM), without a hit: at the highest dose activity change, negative = inhibition | Snurportin-1 (Homo sapiens) + GTP-binding nuclear protein Ran (Homo sapiens) + Importin … | actives 0.071% (n = 340,000); active means falling FRET ratio curve, often poorly fitted, with flat reads before Ran was added; inconclusive means other falling curves, or compound fluorescence or quenching; inactive means flat or rising ratio curve;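 also: potency is read from the fitted curve at half-maximal effect; % of control where 0% means no effect; nearly all actives have a fitted effect of over 45% in size; -100% = wells without RanGTP and RCC1; the record marks most hits as doubtful in a second field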
#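 Two FRET readings bracket the reaction: one 5 min after compound meets Rango–importin beta, another 45 min after RanGTP-RCC1 (0.6 uM Ran, 0.2 uM RCC1, 2 mM GTP) is added. Only the second defines inhibition.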
# GLA inh pH 4.5: qHTS Assay for Inhibitors of Human alpha-Galactosidase at pH 4.5; activity change, negative = inhibition, % at 105 µM; purified enzyme, 4-MU-alpha-Gal fluorescence, pH 4.5; AID 1467, 2008; Alpha-galactosidase A (Homo sapiens), P06280; 230,000 tested, under 10 active; inconclusive = small, poorly fitted or top-dose-only inhibition, or a rising curve; inactive = flat fitted curve, though single readings scatter; no compound was filed as active;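 also: 0% = full activity with enzyme and -100% = basal without enzyme; dose as in the result columns while the protocol names 77 µM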
# Target sequence (P06280 whole entry, looked up): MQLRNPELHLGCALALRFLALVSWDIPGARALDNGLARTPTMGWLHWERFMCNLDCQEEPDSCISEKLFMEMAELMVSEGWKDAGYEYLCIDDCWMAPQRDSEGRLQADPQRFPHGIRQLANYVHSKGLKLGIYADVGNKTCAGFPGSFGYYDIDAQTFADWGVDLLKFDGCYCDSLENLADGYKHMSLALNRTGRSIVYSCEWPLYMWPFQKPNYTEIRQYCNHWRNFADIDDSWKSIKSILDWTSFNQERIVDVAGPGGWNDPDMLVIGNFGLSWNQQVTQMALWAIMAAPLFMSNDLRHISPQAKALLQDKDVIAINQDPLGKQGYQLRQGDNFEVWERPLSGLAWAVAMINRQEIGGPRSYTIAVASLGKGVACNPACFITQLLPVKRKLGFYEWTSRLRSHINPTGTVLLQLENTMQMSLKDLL
# miR-21 FLuc: qHTS Assay for Modulators of miRNAs and/orActivators of miR-21; HeLa miR-21 FLuc reporter, luciferase, 48 h; Potency, µM (series often up to 38.3 µM), without a hit: at the top dose reporter change, positive = more light; 340,000 tested, under 10 active; active = well fitted rising curve with a large enough effect; inconclusive = small, poorly fitted or top-dose-only effect; inactive = no such curve, though single readings can be large or run the other way;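 also: % of control where 0% means no effect; miR-21 action dims this reporter so a rising signal means less miR-21 action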
#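 HeLa cells endogenously expressing miR-21, stably carrying CMV-driven firefly luciferase with a downstream miR-21 binding site, 2000 cells/well. Titrations up to approximately 40 uM, 48 hours; luciferase luminescence read.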
# * = called active by the depositor; ? = inconclusive; . = no result given; [ ] = dose if it differs, or a comment.
# Value order – miR-21 FLuc	Rango dissoc inh	GLA inh pH 4.5	Rango-impB inh
- CNC(=O)c1c(NC(=O)c2cccc(N3C(=O)CCC3=O)c2)sc2c1CCCC2
→ -2%	7%	1	1.1%
- COc1ccc(CCNC(=O)CN(c2ccc(C)cc2)S(=O)(=O)c2c(C)noc2C)cc1OC
→ -9%	-13%	-1	-0.7%
- O=[N+]([O-])c1cccc2c(S(=O)(=O)N3CCOCC3)cccc12
→ -10%	0%	.	-1.0%
- CC(C)C(NS(=O)(=O)c1cccc2nsnc12)C(=O)NC1CCCCC1C (configuration not stated)
→ 2%	-4%	.	0.4%
- CCNC(=O)C1CC(=O)N(c2ccc(Br)cc2)C1 (configuration not stated)
→ -12%	12%	6	-5.9%
- CN(C)C(CNC(=O)c1ccc(S(=O)(=O)Nc2cccc(C(F)(F)F)c2)cc1)c1ccco1 (configuration not stated)
→ .	-9%	.	?
- CCN(CC)S(=O)(=O)c1ccc(O)c(NS(=O)(=O)c2ccccc2F)c1
→ 2%	-5%	-4	4.6%
- CCCOc1ccc(S(=O)(=O)NCCCN2CCOCC2)c2ccccc12
→ 14%	14%	-10	-2.5%
- Clc1ccc(SCc2cn3ccccc3n2)cc1
→ -61%	2%	-1	-1.8%
- CN(c1ccccc1C(=O)Nc1ccccc1C(=O)NCc1ccco1)S(C)(=O)=O
→ -18%	-3%	4	0.5%
- O=C(COC(=O)c1cccs1)Nc1cc(S(=O)(=O)N2CCOCC2)ccc1Cl
→ 0%	1%	2	0.1%
- Cc1ccc(S(=O)(=O)CCC(=O)Nc2nc(-c3ccncc3)cs2)cc1
→ 22%	-6%	.	-4.0%
- COc1ccc(C(=O)Nc2ccc3c(c2)nc(CN2CCN(C(C)=O)CC2)n3C)cc1
→ -11%	-14%	6	0.5%
- Cc1cc(C(=O)N2CCCC(C(=O)c3ccc(Oc4ccccc4)cc3)C2)n[nH]1 (configuration not stated)
→ 23%	-3%	.	-0.2%
- Cc1cc(/C=N/n2cnnc2)c(C)n1-c1ccc(Cl)cc1
→ -8%	-13%	11	-2.9%

# The list goes on.
# Value order – miR-21 FLuc	Rango dissoc inh	GLA inh pH 4.5	Rango-impB inh
- CC1CC(C)CN(C(=O)C2CCCN(S(=O)(=O)c3cccc4nonc34)C2)C1 (configuration not stated)
→ -13%	-17%	2	0.2%
- CCC(C)NC(=O)C1CCN(S(=O)(=O)c2ccc(OC)cc2)CC1 (configuration not stated)
→ -2%	-13%	-2	0.0%
- CC(=O)c1ccc2noc(-c3ccc(C)cc3)c2c1
→ -13%	-15%	11	?
- O=C(COC(=O)/C=C/c1cccc(F)c1)Nc1ccc(Cl)cn1
→ 0%	0%	-1	-1.4%
- CCCc1nnc(NC(=O)CCC(=O)N2CCN(c3nc(C)cc(C)n3)CC2)s1
→ -1%	3%	-2	1.4%
- Cc1onc(-c2c(F)cccc2Cl)c1C(=O)NC1CCCCCC1
→ 9%	1%	.	-1.5%
- CC1c2cc3c(cc2CCN1CC(=O)Nc1ccccc1)OCCCO3 (configuration not stated)
→ 2%	-7%	.	0.4%
- O=C(OCc1ccc(COC(=O)c2cccnc2Cl)cc1)c1cccnc1Cl
→ -2%	-6%	3	0.2%
- Cc1csc(NC(=O)c2ccc(C)c(S(=O)(=O)N3CCOCC3)c2)n1
→ 2%	.	3	.
- O=C(CSc1ncc(C(F)(F)F)cc1Cl)N1CCN(S(=O)(=O)c2ccccc2)CC1
→ 9%	4%	-8	1.6%
- COc1ccc(N(C(C)C(=O)N/N=C/c2ccc(OCC(C)C)cc2)S(C)(=O)=O)cc1 (configuration not stated)
→ 3%	4%	-10	-2.1%
- CCCCN(CCCC)Cc1ccc(C(=O)NNC(=O)Nc2ccccc2)o1
→ -1%	21%	-5[21.1 µM]	1.2%
- Cc1cccc(NC(=O)c2cc([N+](=O)[O-])ccc2NC2CCCCC2)c1
→ -2%	-9%	1	?
- Cc1noc(C)c1S(=O)(=O)N(CC(=O)Nc1ccc2c(c1)OCO2)c1ccc(C(C)C)cc1
→ 0%	-1%	-14	-3.2%
- CC1CC(C)CN(C(=O)c2ccc3c(c2)OCCO3)C1 (configuration not stated)
→ .	-9%	.	0.3%

# The list continues:
# Value order – miR-21 FLuc	Rango dissoc inh	GLA inh pH 4.5	Rango-impB inh
- O=C(c1ccccc1)N1CCN(C(=O)c2cc3ccccc3oc2=O)CC1
→ 0%	13%	.	-0.3%
- CSc1ccc(N/N=C(/C#N)S(=O)(=O)C(C)(C)C)cc1
→ 5%	26%	-5	-1.9%
- CN(Cc1ccccc1)S(=O)(=O)c1ccc(C(=O)Nc2nnc(C3CC3)o2)cc1
→ ?	0%	2	-0.9%
- Cc1ccc(-c2nc3cccnc3s2)cc1NC(=O)c1ccco1
→ .	2%	.	-0.3%
- CN1CCN(S(=O)(=O)c2cccc(C(=O)NC3(C)CCS(=O)(=O)C3)c2)CC1 (configuration not stated)
→ .	9%	.	-2.2%
- O/N=C1\CC(O)Cc2nonc21 (configuration not stated)
→ -3%	-4%	2	1.5%
- O=C(COc1ccc([N+](=O)[O-])cc1)Nc1ccc(N2CCCC2)cc1
→ 0%	-7%	0	0.3%
- O=C1N/C(=C/c2cccn2-c2ccccc2)C(=O)N1Cc1ccccc1F
→ -6%	?	1	-2.4%
- COc1ccc(S(=O)(=O)Nc2ccc3c(c2)OCO3)cc1Cl
→ -9%	7%	-1	1.6%
- Cc1cc(NC(=O)C2C3C(=O)N(Cc4ccc(Cl)cc4)C(C(=O)NC(C)(C)C)C34C=CC2(C)O4)no1 (configuration not stated)
→ -1%	3%	2	-2.0%
- CCOc1ccc(Cn2nnc(-c3ccc(S(C)(=O)=O)cc3)n2)cc1OCC
→ .	1%	.	1.0%
- CCCN1CCN(c2ncnc3c2nnn3Cc2ccccc2)CC1
→ 21%	-3%	1	3.2%
- CC(C)(C)c1csc(NC(=O)Cn2c(=O)oc3ccccc32)n1
→ -9%	1%	-11	0.1%
- COc1ccc(/C=C2/NC(=O)N(CC(=O)Nc3cccc(C)c3)C2=O)cc1O
→ 1%	0%	-3	-0.1%
- C[C@H](CO)N1C[C@H](C)[C@@H](CN(C)Cc2ccc3c(c2)OCO3)Oc2c(NC(=O)C3CCCCC3)cccc2C1=O
→ .	-10%	.	-0.7%

# The list goes on.
# Value order – miR-21 FLuc	Rango dissoc inh	GLA inh pH 4.5	Rango-impB inh
- Cc1ccc(N(CC(=O)NC2CCCC2)C(=O)Cn2nnc(-c3ccccc3F)n2)cc1
→ -3%	1%	.	0.0%
- COc1cc(S(=O)(=O)NCC2(N3CCCCC3)CCCCC2)ccc1NC(C)=O
→ .	14%	.	0.2%
- O=C(Nc1ccccc1C(=O)Nc1ccccc1)c1cccs1
→ 0%	22%	.	-1.4%
- CC(=O)Nc1ccc(NC(=O)CN(c2cccc([N+](=O)[O-])c2)S(C)(=O)=O)cc1
→ ?	-2%	9	-0.6%
- Cc1c(OC(C)C(=O)N[C@H](C(=O)O)c2ccccc2)ccc2c3c(c(=O)oc12)CCCC3 (some centres not stated)
→ -4%	?	.	?
- O=C(Cn1cnc2ccccc2c1=O)Nc1ccc(S(=O)(=O)N2CCCC2)cc1
→ 0%	?	7	-2.3%
- CCOc1cccc(NC(=O)c2cnccc2C(F)(F)F)c1
→ 2%	0%	-2	1.1%
- CCOc1ccccc1CN1CCN(Cc2cn(C)nc2-c2ccccc2)CC1CCO (configuration not stated)
→ -2%	14%	-3	2.0%
- Cc1cccc(C)c1OCC(O)CNS(=O)(=O)c1ccccc1C(=O)N1CCCCC1 (configuration not stated)
→ 26%	12%	5	-0.3%
- Cc1ccc2nc(-c3ccc(N)cc3)sc2c1
→ 23%	16%	?	?
- COc1cc(OC)cc(C(=O)Nc2ccc(S(=O)(=O)Nc3cc(C)on3)cc2)c1
→ -8%	7%	5	-0.3%
- COc1ccc(Cl)cc1NC(=O)COC(=O)C1CC(=O)N(Cc2ccccc2)C1 (configuration not stated)
→ .	19%	.	-0.5%
- Cc1cccc(C(C(=O)NCc2ccc(F)cc2)N(C(=O)c2csnn2)C2CC2)c1 (configuration not stated)
→ 8%	-13%	.	4.0%
- O=C(Cn1nc(-c2ccccc2)ccc1=O)N1CCCCC1
→ 0%	15%	.	-2.0%
- CCCOc1ccc(C(=O)Nc2ccc(N3CCN(C(=O)c4ccco4)CC3)cc2)cc1
→ -1%	5%	.	3.8%

# Complete entries from above. Order of values: miR-21 FLuc	Rango dissoc inh	GLA inh pH 4.5	Rango-impB inh
# CC(C)(C)c1csc(NC(=O)Cn2c(=O)oc3ccccc32)n1 is entered as -9%	1%	-11	0.1%
# Cc1csc(NC(=O)c2ccc(C)c(S(=O)(=O)N3CCOCC3)c2)n1 is entered as 2%	.	3	.
# CCC(C)NC(=O)C1CCN(S(=O)(=O)c2ccc(OC)cc2)CC1 (configuration not stated) is entered as -2%	-13%	-2	0.0%
# CN(c1ccccc1C(=O)Nc1ccccc1C(=O)NCc1ccco1)S(C)(=O)=O is entered as -18%	-3%	4	0.5%
# Cc1onc(-c2c(F)cccc2Cl)c1C(=O)NC1CCCCCC1 is entered as 9%	1%	.	-1.5%

# 6 compounds from above, arranged by the value under miR-21 FLuc, falling:
SMILES | miR-21 FLuc
Cc1ccc2nc(-c3ccc(N)cc3)sc2c1 | 23%
Cc1cccc(C(C(=O)NCc2ccc(F)cc2)N(C(=O)c2csnn2)C2CC2)c1 (configuration not stated) | 8%
Cc1csc(NC(=O)c2ccc(C)c(S(=O)(=O)N3CCOCC3)c2)n1 | 2%
O=C(Cn1nc(-c2ccccc2)ccc1=O)N1CCCCC1 | 0%
CCCc1nnc(NC(=O)CCC(=O)N2CCN(c3nc(C)cc(C)n3)CC2)s1 | -1%
CCOc1ccccc1CN1CCN(Cc2cn(C)nc2-c2ccccc2)CC1CCO (configuration not stated) | -2%

# Going on with the list.
# Value order – miR-21 FLuc	Rango dissoc inh	GLA inh pH 4.5	Rango-impB inh
- Cc1cc(OCC(=O)N2CCC(O)(c3ccc(Cl)cc3)CC2)c2c(C)cc(=O)oc2c1
→ -3%	-8%	.	0.5%
- Cc1cc(C)nc(NC(=O)C(c2ccccc2)c2ccccc2)n1
→ 0%	15%	-23	0.4%
- Cc1cccc(CN2CCc3c(OCC(=O)N4CCCc5ccccc54)cccc3C2=O)c1
→ 19%	-1%	-5	-1.5%
- O=C(NNc1c(Cl)cncc1Cl)c1sccc1Cl
→ 7%	13%	-1	0.3%
- CCOC(=O)C1CCCN(C(=O)c2cc(-c3ccc(C)cc3)on2)C1 (configuration not stated)
→ -26%	6%	6	-4.6%
- COc1ccccc1CNc1ccc(N2CCOCC2)c(C(=O)O)c1
→ -6%	-6%	-2	1.5%
- O=C1NC(=O)/C(=C\c2ccc(OCc3cnc(Cl)s3)cc2)S1
→ -9%	8%	-8	-1.7%
- CC(C)(C)n1nnnc1C(c1cccs1)N(Cc1ccccc1)Cc1ccco1 (configuration not stated)
→ 28%	-3%	-8	-1.4%
- CN(C)/C=C1/Sc2ccccc2C1=O
→ -23%	?	0	?
- COc1ccc(Br)cc1C(=O)Nc1cccc2ncccc12
→ -13%	2%	5	4.7%

# Some of these compounds in order of molar mass, ascending:
# Value order – miR-21 FLuc	Rango dissoc inh	GLA inh pH 4.5	Rango-impB inh
- O=C(NNc1c(Cl)cncc1Cl)c1sccc1Cl
→ 7%	13%	-1	0.3%
- COc1ccccc1CNc1ccc(N2CCOCC2)c(C(=O)O)c1
→ -6%	-6%	-2	1.5%
- O=C1NC(=O)/C(=C\c2ccc(OCc3cnc(Cl)s3)cc2)S1
→ -9%	8%	-8	-1.7%

# Some of the compounds tested; rates above refer to the full screens.
